Source: PubChem (National Center for Advancing Translational Sciences (NCATS))
StopGo reporter – lowers the luciferase signal of an FMDV 2A StopGo reporter; actives 1.2% (n = 410,000); Potency, µM (highest dose often 57.9 µM), for inactives: at the highest dose signal change, negative = less light; human cells with a luciferase reporter of 2A StopGo recoding; control for the full effect not named in the record; active = well fitted falling curve with a large enough effect; inconclusive = small, poorly fitted or top-dose-only effect; inactive = no such curve, though single readings can be large or run the other way; tested in HEK293T cells; also: nearly all actives have a fitted effect of over 45% in size; luciferase light after 4 h
Starred values were filed as active, the others as inactive; ? = inconclusive; [ ] = another dose, or the depositor's remark. % is scaled to controls: 0 for no effect and ±100 for the full control effect; potency is read from the fitted curve at half-maximal effect. An excerpt (hit frequency here may not be typical).

SMILES	StopGo reporter
COc1ccccc1C1CN(CC(=O)N[C@H]2CCCCNC2=O)Cc2ccccc2O1 (stereo partly drawn)	-6.4%
COc1cccc(CNC(=O)c2c(OC)cc(=O)n3c2CCN(C(=O)C2CC24CCCCC4)CC3)c1 (stereo not drawn)	-7.4%
COc1ccccc1-c1ccnc(-n2ncc(C(=O)NCc3ccncc3)c2C)n1	-6.9%
O=C(c1cc(-c2ccccc2)on1)N1CCOc2ccc(CN3CCN(c4ccccn4)CC3)cc2C1	-1.4%
O=C(NCc1ccccn1)c1cnn(-c2nccc(-c3cccs3)n2)c1C1CC1	-4.7%
Cc1csc(SCC(=O)N2CCOc3ccc(C(O)C4CCCCC4)cc3C2)n1 (stereo not drawn)	-4.3%
COc1ccc(/C=C/C(=O)NCC2Cc3cc(Cl)cc(-c4ncccn4)c3O2)cc1 (stereo not drawn)	0.1%
Cc1cnc(C)c(-c2cc(F)cc3c2OC(CNC(=O)C2CCOC2)C3)n1 (stereo not drawn)	-9.7%
CCn1c(-c2ccccc2F)nc2cc(NC(C)=O)cc(C(=O)NCC3CCOCC3)c21	-1.1%
COC(=O)c1cc(CNC(=O)c2ccccn2)cc(NC(=O)c2ccccc2OC)c1	-7.9%
Cc1nc2sccn2c1CN1CCOc2ccc(CN3CCN(c4ccc(F)cc4)CC3)cc2C1	8.91µM*
NC1(C(=O)O)CCc2cc(P(=O)(O)O)ccc21 (stereo not drawn)	16.0%
O=C(NCc1nnc2n1CCN(Cc1ccnc3ccccc13)CC2)c1cccc(F)c1	-1.3%
C=CCn1c(=O)c2c(nc(-c3ccccc3)n2C)n(C)c1=O	-4.7%
O=C(c1ccccc1F)N(Cc1cc2cc3c(cc2nc1N1CCOCC1)CCC3)CC1CCCO1 (stereo not drawn)	16.4%
COc1ccc(CN2CCCC(n3cc(C(=O)N4CCCCC4)nn3)C2)c(OC)c1OC (stereo not drawn)	?
Cc1oc(-c2ccccc2NC(=O)C2CCC2)nc1CNC(=O)c1cccc(C(F)(F)F)c1	8.9%
COC(=O)[C@@H]1CCCN1Cc1ccc2c(c1)CN(Cc1ccc3c(c1)CCCN3C)CCO2	-1.6%
COc1cc(=O)n2c(c1C(=O)NC(C)c1ccco1)CCN(Cc1cc(C)ccc1C)CC2 (stereo not drawn)	-14.6%
C[C@@H]1O[C@H](C[N+](C)(C)C)C[C@@H]1O	-10.5%
Cc1cc(C)n(-c2ccc(C(=O)N3CCc4c(cnc(C)c4CNC(=O)c4ccccc4F)C3)cc2)n1	-11.1%
COCCN1CCN(C(=O)c2cnn(-c3nccc(-c4cc5ccccc5o4)n3)c2C2CC2)CC1	-1.3%
O=C1CC2OCC=C3CN4CCC56c7ccccc7N1C5C2C3CC46 (stereo not drawn)	-15.9%
CCOC(=O)c1ccc(-c2ccc3ncnc(NCc4csc(C)n4)c3c2)o1	-5.6%
CCC1CN(CC(=O)NC(C)c2cn(C)nc2C)Cc2cc(OC)ccc2O1 (stereo not drawn)	-8.4%
COc1ccccc1CCc1nc2ccccc2n1C1CCN(C(=O)c2cc(C)nn2C)CC1	-7.3%
CC(=O)c1ccc(F)c(-c2cc(C)cc3c2OC(CNC(=O)c2csc(C)n2)C3)c1 (stereo not drawn)	-17.1%
COc1cccc(CN2CCC3(CCC(CNC(=O)c4cc(C)nn4C)O3)CC2)c1OC (stereo not drawn)	-7.3%
CCn1c(-c2ccccc2F)nc2cc(NC(C)=O)cc(C(=O)NC(c3ccccn3)C(F)(F)F)c21 (stereo not drawn)	-10.0%
COc1ccc(OC)c(-c2cc(Cl)c3c(c2)CC(CNC(=O)c2cccnc2SC)O3)c1 (stereo not drawn)	-2.9%
O=C(c1cccc(Cn2cccn2)c1)N1CCC(n2c(C3CCCO3)nc3cc(C(F)(F)F)ccc32)CC1 (stereo not drawn)	-6.5%
COc1ccc(OC)c([C@@H](O)[C@H](C)N)c1	-8.0%
c1ccc(CN2CCN(Cc3ccc4c(c3)CN(Cc3c[nH]c5ccccc35)CCO4)CC2)nc1	-12.3%
COc1ccc(CN2Cc3ccccc3OC(c3ccccc3OC)C2)c(O)c1 (stereo not drawn)	-13.6%
CCC(COC)NC(=O)c1cnn(-c2ncc3c(n2)-c2ccccc2CC3)c1C (stereo not drawn)	29.2%
Cc1cnc(SCc2ccccn2)nc1C1CCCN(C(=O)c2cc3ccccc3oc2=O)C1 (stereo not drawn)	-27.9%
Cc1ccc(C(=O)N(Cc2cc3cc4c(cc3nc2N2CCOCC2)CCC4)CC2CCCO2)cc1 (stereo not drawn)	25.2%
OC1CCN(Cc2ccc3c(c2)CN(C/C=C/c2ccco2)CCO3)CC1	-6.0%
COc1cccc(CN2C(=O)NC(C)(C3CCN(Cc4cc(Cl)ccc4O)CC3)C2=O)c1OC (stereo not drawn)	-23.5%
CCc1nc(CN2CCOc3ccc(C(O)C4CCCCC4)cc3C2)c(C)[nH]1 (stereo not drawn)	-9.9%

In a second layout: results already given.
SMILES,StopGo reporter
O=C(c1cccc(Cn2cccn2)c1)N1CCC(n2c(C3CCCO3)nc3cc(C(F)(F)F)ccc32)CC1 (stereo not drawn),-6.5%
COc1ccc(OC)c([C@@H](O)[C@H](C)N)c1,-8.0%
c1ccc(CN2CCN(Cc3ccc4c(c3)CN(Cc3c[nH]c5ccccc35)CCO4)CC2)nc1,-12.3%
COc1ccc(CN2Cc3ccccc3OC(c3ccccc3OC)C2)c(O)c1 (stereo not drawn),-13.6%
CCC(COC)NC(=O)c1cnn(-c2ncc3c(n2)-c2ccccc2CC3)c1C (stereo not drawn),29.2%
Cc1cnc(SCc2ccccn2)nc1C1CCCN(C(=O)c2cc3ccccc3oc2=O)C1 (stereo not drawn),-27.9%

Next entries follow.
SMILES	StopGo reporter
COC(=O)/C=C/c1ccc(C(=O)NCC(=O)N[C@@H](CCC(=O)OC)C(=O)N[C@@H](CC(C)C)C(N)=O)cc1	2.2%
COCC(=O)Nc1cc(C(=O)N2CCCC(C(N)=O)C2)cc2nc(-c3ccccc3)n(C)c12 (stereo not drawn)	-5.9%
Cc1ccc2c(c1)CN(CCC(=O)NCc1cc(C)n(C)n1)CC(C)O2 (stereo not drawn)	-5.8%
OCCN1CCN(Cc2ccc3c(c2)CN(Cc2cccn2-c2ccccn2)CCO3)CC1	-11.8%
COC(=O)C1CCCCN1Cc1ccc2c(c1)CN(C(=O)c1csc(-c3cccs3)n1)CCO2 (stereo not drawn)	-18.5%
COc1ccc(CN2CCOc3ccc(CN4CCN(CCO)CC4)cc3C2)c2ccccc12	-7.5%
C#Cc1cccc(Nc2ncnc3cc(OC)c(OC)cc23)c1	?
COc1cc2ncnc(Nc3ccc(Cl)cc3F)c2cc1OC	8.6%
CCN(Cc1ccncc1)Cc1ccc2c(c1)CN(C(=O)c1cccc3c(C)c(C)[nH]c13)CCO2	5.2%
Cc1cc(=O)oc2cc(Oc3ccc([N+](=O)[O-])cc3C(F)(F)F)ccc12	-18.5%

Reformatted in markdown: part of the list above.
| Structure | StopGo reporter |
| --- | --- |
| COC(=O)/C=C/c1ccc(C(=O)NCC(=O)N[C@@H](CCC(=O)OC)C(=O)N[C@@H](CC(C)C)C(N)=O)cc1 | 2.2% |
| COCC(=O)Nc1cc(C(=O)N2CCCC(C(N)=O)C2)cc2nc(-c3ccccc3)n(C)c12 (stereo not drawn) | -5.9% |
| Cc1ccc2c(c1)CN(CCC(=O)NCc1cc(C)n(C)n1)CC(C)O2 (stereo not drawn) | -5.8% |

(listing goes on)
SMILES	StopGo reporter
Cc1cc(CNC(=O)CCN2Cc3cc(Cl)ccc3OC(C)C2)nn1C (stereo not drawn)	19.0%
CC(=O)Nc1ccccc1-c1nc(CNC(=O)c2cccc(F)c2)c(C)o1	-10.1%
Cc1cnc(C(=O)N2CCOc3ccc(CN4CCCC(C(=O)c5cccnc5)C4)cc3C2)[nH]1 (stereo not drawn)	-28.1%
COc1ccc2c(c1)OC(C)CN(CCNC(=O)c1cccc(N3CCNC3=O)c1)C2 (stereo not drawn)	4.2%
CCSc1nnc(C(C)NC(=O)c2ccc(OC)cc2)n1C (stereo not drawn)	-5.8%
CC(C)N1CCN(C(=O)c2cnn(-c3nccc(-c4ccc5c(c4)OCO5)n3)c2-c2ccco2)CC1	-4.2%
Cc1cccc2cc(CN(C(=O)c3ccc(-c4ccc(F)cc4)cc3)C3CC3)c(N3CCC(O)CC3)nc12	-18.9%
O=C(c1cnn2cccnc12)N1CCOc2ccc(C(O)C(c3ccccc3)c3ccccc3)cc2C1 (stereo not drawn)	-6.1%
Cc1ccccc1C1(CC(=O)N2CCC[C@H]2C(N)=O)CC(=O)N(C2CCCC2)C1=O (stereo partly drawn)	16.3%
COc1ccc(-n2c(CNC(=O)c3c(-c4ccccc4)noc3C)nnc2SC)cc1	-14.1%
COc1ccccc1CN1C(=O)[C@@H]2Cc3c([nH]c4ccccc34)C(C)(C)N2C1=O	28.2µM*
CN(C)C(=O)CCC(=O)NCC1Cc2cccc(-c3ccccc3C(F)(F)F)c2O1 (stereo not drawn)	-15.7%
COCc1c(C(=O)N2CCN(C(C)C)CC2)cnn1-c1nccc(-c2cc(C)sc2C)n1	-9.6%
COC1(OC)C=CC(=O)C=C1NC(=O)c1ccccc1OC(C)=O	?
Cc1ncc2c(c1CNC(=O)c1ccc3c(c1)OCO3)CCN(C(=O)c1noc3c1CCCC3)C2	-11.2%
Cc1ccc2cc(CNCc3cccc4ccccc34)c(N3CCC(O)CC3)nc2c1	-4.3%
COc1ccc(CNC(=O)c2cnn(-c3ncc4c(n3)-c3ccccc3CC4)c2C)cc1OC	33.9%[activator]
COC(=O)c1cc(CNC(=O)c2ccccc2)cc(NC(=O)c2ccccc2OC)c1	5.6%
CCN(Cc1ccncc1)Cc1ccc2c(c1)CN(C(=O)c1ccc(OC)cc1)CCO2	-13.0%
COCCN1CCN(C(=O)c2cnn(-c3nccc(-c4ccccc4OC)n3)c2-c2ccco2)CC1	-16.8%
CSc1ccccc1C(=O)NCC1Cc2cccc(-c3ncccc3C)c2O1 (stereo not drawn)	-4.7%
COc1ccc(-c2nc3cc(F)ccc3cc2CN(C(=O)c2cccs2)C2CC2)cc1	-11.1%
Cc1cccc2cc(CN(CC3CCCO3)C(=O)c3cccc(F)c3)c(N(C)C)nc12 (stereo not drawn)	-5.1%
CS(=O)(=O)c1ccc(-c2ccc3c(c2)CC(CNC(=O)C2(N4CCOCC4)CCCCC2)O3)cc1 (stereo not drawn)	-11.9%
Oc1ccc(Cl)cc1CN1CCOc2c(O)cc(-c3nc4ccccc4s3)cc2C1	-17.4%
COC1C(O)C(CO)OC1n1cnc2c(NC3CCCCC3)ncnc21 (stereo not drawn)	-11.6%
COc1ccc2c(c1)CCc1cnc(-n3ncc(C(=O)NCC(C)(C)CN(C)C)c3C)nc1-2	0.4%
COc1ccc2cc([C@H](C)CO)ccc2c1	13.3%
Cc1ccccc1-c1ccc(CN2CCc3nnc(CNC(=O)c4ccccn4)n3CC2)cc1	-18.5%
CC(NC(=O)c1cccnc1)c1nnc2n1CCN(Cc1ccc(-c3ccccc3)cc1)CC2 (stereo not drawn)	-9.8%
COc1cccc(C2(CC(=O)N3CCN(c4ccccn4)CC3)CC(=O)N(C3CCCC3)C2=O)c1 (stereo not drawn)	-0.8%
Cc1c(C(=O)NCC2(N3CCOCC3)CCCCC2)cnn1-c1nccc(-c2ccccc2F)n1	-16.1%
Cc1cnc(C)c(-c2ccc(F)c3c2OC(CNC(=O)Cc2c(C)[nH]c4ccccc24)C3)n1 (stereo not drawn)	-9.0%
CC1(C2CCN(Cc3c[nH]c4ccccc34)CC2)NC(=O)N(CCN2CCOCC2)C1=O (stereo not drawn)	-14.4%
Cc1ccc2c(c1)CN(CCNC(=O)C(C)Oc1ccccc1)CC(C)O2 (stereo not drawn)	-8.1%
O=C(O)[C@@H]1C[C@H](CP(=O)(O)O)CCN1	-22.2%
CN(CCO)C(=O)c1cn(C2CCN(Cc3ccc(C(F)(F)F)cc3)CC2)nn1	-0.8%
COC(=O)[C@@H](NC(=O)C1CCCN(c2nc(C)c3ccc(C)cc3n2)C1)C(C)C (stereo partly drawn)	-11.9%
COCc1c(C(=O)N2CCCCC2c2cccnc2)cnn1-c1ncc2c(n1)-c1ccccc1CCC2 (stereo not drawn)	-17.1%
COc1cccc(CN2CCC(n3cc(C(=O)N4CCCCC4)nn3)CC2)c1OC	-7.7%
CC(C)N1C[C@@H](Sc2ccccn2)C[C@H]1C(=O)Nc1ccc2c(c1)Nc1ccccc1CC2	-6.2%
O=C(/C=C/c1ccc(F)cc1)NCC1Cc2cccc(-c3ncccn3)c2O1 (stereo not drawn)	-14.0%
COc1ccccc1-n1cc(CN2CCC3(CCC(CNC(=O)c4ccccc4)O3)CC2)cn1 (stereo not drawn)	16.2%
CCN1CCCC1CNC(=O)c1cnn(-c2ncc3c(n2)-c2ccc(OC)cc2CC3)c1C1CC1 (stereo not drawn)	-7.7%
CCC1(C2CCN(C(=O)c3ccccc3C(C)=O)CC2)NC(=O)N(CCc2scnc2C)C1=O (stereo not drawn)	-9.3%
Cc1oc(-c2ccccc2NC(=O)c2ccsc2)nc1CN(C)CC1CC=CCC1 (stereo not drawn)	-12.8%
COc1ccc(CN2CCOc3ccc(CN4CCC(O)CC4)cc3C2)c(OC)c1OC	-5.9%
COC(=O)c1ccccc1-c1cc(C)cc2c1OC(CNC(=O)c1ccn(C)n1)C2 (stereo not drawn)	10.4%
O=Cc1ccc(N2CCN(S(=O)(=O)c3ccc4c(c3)CC(=O)N4)CC2)cc1	-3.5%
O=C(NCC1Cc2cccc(-c3cnccn3)c2O1)c1ccc2c(c1)OCCO2 (stereo not drawn)	47.5%[activator]
Next section.
SMILES	StopGo reporter
c1ccc2c(N3CCCCCC3)nc(CN3CCCCC3c3nccs3)nc2c1 (stereo not drawn)	-13.1%
Cc1[nH]c2c(F)cccc2c1CC(=O)NCCN1Cc2ccccc2OC(C)C1 (stereo not drawn)	8.6%
Cc1cccc(CNC(=O)c2c3n(c(C)cc2=O)-c2ccccc2SC(c2sccc2C)C3)n1 (stereo not drawn)	-0.4%
Cc1ccc(CN2CCc3nnc(C(C)NC(=O)c4cc(F)ccc4F)n3CC2)o1 (stereo not drawn)	-6.2%
COc1ccccc1C1CN(CCNC(=O)[C@@H]2CSC(=O)N2)Cc2ccccc2O1 (stereo partly drawn)	58.0%[activator]
